# NPYLR7 agonist – agonists of mosquito NPYLR7 receptor, primary screen, cell-based, Aedes aegypti, calcium fluorescence, mosquito biting behavior; AID 1259423, 2018; 270,000 compounds, 0.15% hits; Aedes aegypti neuropeptide Y-like receptor 7 (NPYLR7); activation, % at 10 µM; HEK293T NPYLR7/Galpha15, GCaMP6s calcium fluorescence; in the data active = activation above about 40%;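 also: 0% = vehicle and 100% = reference agonist at the receptor; some compounds past the cut are filed as inactive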
# NPYLR7 agonist max-min – further read-out of NPYLR7 agonist, marked with its call; activation, %; measured here: Max-Min RFU normalised activation; some inactives read as strong as hits;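 span of the calcium signal over five minutes; 0% = vehicle and 100% = native peptide agonist; compound fluorescence can raise it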
# Numbers without * were called inactive; & = joins results of further samples.
smiles	NPYLR7 agonist	NPYLR7 agonist max-min
CCCn1ccnc1S(=O)(=O)CC(=O)Nc1cc(Cl)ccc1C	5	2
FC(F)(F)Cn1ccnc1Cn1cc(-c2ccccc2)cn1	1	-8
O=C(O)c1cc(-c2cccc(-n3cccn3)c2)cc(S(=O)(=O)N2CCCC2)c1	7	6
c1csc(CN2CCOC(CC3CCCCC3)C2)n1 (stereo not drawn)	4	-8
CN(CCc1ccccc1)c1nc(-c2cc3ccccc3o2)nc2ccccc12	-3	6
CCOc1c([N+](=O)[O-])cc2c(C)c(C(=O)N3CCOCC3)oc2c1OCC	14	5
COc1cc(CN(C)Cc2ncccc2C)cc(OC)c1	4	14
Cc1nc(-c2cccc(C(F)(F)F)c2)nc(N2CCN(C(=O)/C=C/c3ccccc3)CC2)c1C	-5	0
CCCN(CC(=O)N(Cc1cccn1Cc1ccc(Br)cc1)C1CCCCC1)C(=O)COC	-9	-8
CC1(C(=O)Nc2ccc3c(c2)OCCO3)CCN1Cc1ccc(-c2ccccn2)cc1 (stereo not drawn)	7	3

# Structures from the list above with a halogen (4):
smiles	NPYLR7 agonist	NPYLR7 agonist max-min
CCCn1ccnc1S(=O)(=O)CC(=O)Nc1cc(Cl)ccc1C	5	2
FC(F)(F)Cn1ccnc1Cn1cc(-c2ccccc2)cn1	1	-8
Cc1nc(-c2cccc(C(F)(F)F)c2)nc(N2CCN(C(=O)/C=C/c3ccccc3)CC2)c1C	-5	0
CCCN(CC(=O)N(Cc1cccn1Cc1ccc(Br)cc1)C1CCCCC1)C(=O)COC	-9	-8

# (more compounds)
smiles	NPYLR7 agonist	NPYLR7 agonist max-min
C=CCCC(=O)Nc1sc2c(c1C(=O)OCC)CCN(C)C2	0	-4
Cc1cc(OCC(=O)NNC(=O)/C=C\c2ccccc2Cl)cc(C)c1Cl	-5	-11
O=C(c1nn(-c2ccc(F)cc2)c(=O)n(Cc2ccccc2Cl)c1=O)N1CCOCC1	11	15
Cc1cccc(NC(=O)c2nnn(Cc3ccccc3C)c2N)c1	0	7
O=C(NCCCc1ccccc1)C1CCCN(c2cnc3ccccc3n2)C1 (stereo not drawn)	2	0
CCc1ccc(C(O)c2ncc(-c3ccc(C(F)(F)F)cc3)[nH]2)cc1 (stereo not drawn)	-3	-4
COC(=O)CCCC(=O)N1CCc2c([nH]c3ccc(OC)cc23)C1c1ccc(OCCCN(C)C)cc1 (stereo not drawn)	11	1
O=C(c1ccc2c(c1)OCO2)C1CCCN(Cc2nc(-c3ccccc3)cs2)C1 (stereo not drawn)	11	3
Cc1ccc(NC(=O)NC2CCN(c3ccccc3C(=O)NCc3ccc(F)cc3)CC2)cc1	20	13
N#Cc1c(N)nc2c(c1-c1ccncc1)CCCCCC2	0	-2
COc1ccc(CCNC2CC(=O)N(c3ccc(F)cc3)C2=O)cc1OC (stereo not drawn)	1	-2
O=C(Cc1cc(-c2cc3ccccc3o2)on1)NCCC1=CCCCC1	0	2
Cc1c2c(nc3ccccc13)CC1(CCCCC1)CC2=O	8	3
O=C(CSc1nc(=O)n(CCCN2CCOCC2)c2c1CCC2)N1CCc2ccccc21	-1	-7
CC(C)CN(CC(=O)N(Cc1cccn1Cc1ccc(Br)cc1)C1CCCCC1)C(=O)c1ccc(C(F)(F)F)cc1	-4	10
O=C(O)CC12CSc3[nH]c(=O)sc3C1c1cc(Cl)ccc1OC2=O (stereo not drawn)	9	8
O=C(Nc1nccs1)C1CCCN(S(=O)(=O)c2cnc[nH]2)C1 (stereo not drawn)	6	9
CC1(C)CC(=O)C2C(=Nc3nonc3NC2c2cccc3cccnc23)C1 (stereo not drawn)	1	20
Cc1cc(NC(=O)NC2(c3ccc(Cl)cc3)CCOCC2)no1	-11&2	-3&15
COc1ccc(CC(=O)N(C)CC2CCCN(CCc3ccc(Cl)cc3)C2)cc1 (stereo not drawn)	-11	-10
CCOc1ccc(C(=O)Nc2ccc(Nc3ccc(-n4ccc(C)n4)nn3)cc2)cc1OCC	-2	-5
CC(NC(=O)NCc1ccnn1C)c1ccc(S(N)(=O)=O)cc1 (stereo not drawn)	-4	-4
CC(C)C1CN(C(=O)C(N)=O)CCCN1Cc1ccc(F)cc1 (stereo not drawn)	0	-8
O=C(O)CSc1nnc(Cn2cccn2)n1-c1cccc2ccccc12	1	8
C=CCCCCCCCCCCCc1ccco1	-11	-15
C=CCN(CC=C)C(=O)CN1CCC[C@H]1CO	-5	-7
COc1cc(S(=O)(=O)NCc2ccccc2Cl)ccc1Br	2	8
CCc1nc(CNC(=O)C2CCCN(C3CCN(C(=O)C4CC4)CC3)C2)no1 (stereo not drawn)	8	3
CCc1cnc(N2C[C@@H]3CN(c4ncccn4)C[C@]3(C(=O)O)C2)nc1	-5	-11
c1ccc(-c2noc(CN3CCN(C4CCCC4)CC3)n2)nc1	11&10	12&8
COCCN1CCN(c2nc(C(=O)N3CCOCC3)cs2)C1=O	1	3
COc1ccc(OC)c(N(CC(=O)N2CCOCC2)S(=O)(=O)c2ccc(OC)c(OC)c2)c1	0	-3
COc1cccc(-n2cc(CN(C)C(=O)C3CC4(CCNCC4)CN3)cn2)c1 (stereo not drawn)	21	6
Oc1c2cccnc2cn1CCc1cnn(-c2ccccc2)c1	21	10
CCC(C)NC(=O)C1CSCN1S(=O)(=O)c1cnc2[nH]c(=O)[nH]c(=O)c2c1 (stereo not drawn)	4	-1
O=c1nc(SCc2ccncc2)c2c([nH]1)CCCC2	-2	-5
O=C(NCc1ccccc1-n1ccnc1)c1sccc1Cl	-3	-6
C=C(C)COc1cccc(C(=O)N2CCC(NS(C)(=O)=O)CC2)c1	-7	-9
COCC1(NC(=O)[C@H](N)c2ccccc2)CCCC1	-3	-6
COCCN(CC(=O)N1CC(=O)N(c2cccc(C)c2)C1)C(=O)NC12CC3CC(CC(C3)C1)C2	5	14
CCCCNC(=O)c1cc(-c2ccccc2F)nc2cc(C(C)(C)C)nn12	-5	4
COC(=O)Cc1cc(=O)n(-c2ccccc2Cl)[nH]1	0	-1
CC(C)CN(Cc1cc(NC(=O)c2cccc(F)c2)ccc1N(C)C)C(=O)Cc1cccs1	23	22
CC1CCN(C(=O)c2cc(NC(=O)CC(C)(C)C)c(=O)n(C)c2)CC1	-1	-3
CCCC1CCC(c2nc(-c3ccccc3Cl)no2)CC1 (stereo not drawn)	1	2
NC(C(=O)O)C(O)C(=O)O (stereo not drawn)	-7	-13
CC(C)(C)CC(=O)Nc1nnc(C2CCCCC2)s1	2	7
CC(Cn1cccn1)C(=O)N1CCc2[nH]nc(-c3ccc(Cl)cc3)c2C1 (stereo not drawn)	12	1
CCCn1c(C2CC(=O)N(c3ccccc3)C2)nc2ccccc21 (stereo not drawn)	5	9
CN(C1CCS(=O)(=O)C1)S(=O)(=O)c1ccc(F)cc1 (stereo not drawn)	2	0

# Continued:
smiles	NPYLR7 agonist	NPYLR7 agonist max-min
COc1ccccc1N=C1SCCCN1C(=O)C1CSC2(C)CCC(=O)N12 (stereo not drawn)	3	9
CC1CCN(CCCNC(=O)CCCc2nnc3c(=O)n(-c4ccc(Cl)cc4)ccn23)CC1	-2	-5
COc1cccc(N=c2oc3c(C)ncc(CO)c3cc2C(=O)Nc2ccc(C)c(C)c2)c1	-5	-13
O=C(CN1CCc2ccccc2C1)Nc1ccccc1C(=O)Nc1ccccc1	-1	-2
Cc1ccccc1Cn1c(=O)c2c(nc3n(C4CCCC4)c(C)cn23)n(C)c1=O	9	14
CCOc1ccc(C2CC(c3ccc(OC)cc3OC)=NN2C(=O)CN2CCN(CC)CC2)cc1 (stereo not drawn)	1	3
COc1ccc(C2=NOC(CNCc3cccc(Cl)c3)C2)cc1OC (stereo not drawn)	-1	-5
COc1ccc(CCOc2nc(-c3ccc(Cl)c(Cl)c3)n(-c3cccc(NC(=O)c4cccc(OC)c4)c3)n2)cc1	18	13
Cn1c(=O)c2cc(C(=O)NCCC3=CCCCC3)n(Cc3ccccc3)c2n(C)c1=O	0	-2
Cc1ccc(OCC2CCCN(Cc3ccc(C#CCO)s3)C2)cc1 (stereo not drawn)	0	-5
CC1CN(C(=O)CN2CC(O)CC2C2CCCCC2)CC(C)O1 (stereo not drawn)	-2	53
Cc1ccccc1CSc1nc(Oc2ccccc2F)cc(C(C)C)n1	23	32
O=C(NC1CCCC1)c1ccc(N2CCC(NC(c3ccncc3)c3ccc(Cl)cc3)CC2)cc1 (stereo not drawn)	13	4
Cc1nn2c(C(F)(F)F)cc(-c3ccc(Cl)cc3)nc2c1C(N)=O	-7	-13
COc1ccc(-c2cccc(-n3cncc3C(=O)NCc3ccc(F)c(F)c3)c2)cc1OC	7	3
C=Cc1cccc(CN2CCCC3(CCNCC3)CC2)c1	4	2
Cc1nc(NC(=O)NCc2nn(-c3ccccc3)c3c2CCC3)oc1C	11	9
CC(C)NC(=O)C1(C)CCCCCN1Cc1ccc(-c2ccccc2)cc1 (stereo not drawn)	1	0
CCCCNC(=O)C1(C)CCN1Cc1cccc(OC)c1F (stereo not drawn)	6	0
C#Cc1ccc(NC(=O)C2(C)CCN2C(=O)Cc2ccc(C(C)C)cc2)cc1 (stereo not drawn)	-3	-9
c1ccc(-c2csc(CCn3ccnc3-c3ccncc3)n2)cc1	1	0
CC(C)c1cccc(N2CC(C(=O)Nc3ccccc3C(=O)NC3CC3)CC2=O)c1 (stereo not drawn)	10	3
CC(C)(C)c1cc(NC(=O)COc2ccccc2Cc2ccccc2)n(C2CCS(=O)(=O)C2)n1 (stereo not drawn)	18	9
CC(C)(C)c1ccc(C2SCC(=O)N2CC2CCN(C(=O)Nc3ccc(C(F)(F)F)cc3)CC2)cc1 (stereo not drawn)	16	18
COc1ccccc1/C=N\Nc1nc(N2CCCC2)nc(N2CCCC2)n1	-6	-9
CCc1cc(N2CCCC(Cn3cncn3)C2)nc(-c2ccncc2)n1 (stereo not drawn)	-1	-4
O=C(c1ccccn1)C1CCCN(Cc2nc(COc3ccccc3)no2)C1 (stereo not drawn)	5	-1
CN(Cc1nccn1C)C(=O)c1cc(CN2CCOCC2)on1	4	4
c1cc2c(cc1-c1nnc(SCc3nnc(-c4cc5c(s4)CCCC5)o3)o1)OCO2	3	-5
CC(C)N(Cc1nccn1Cc1cccc(F)c1)C(=O)c1ccco1	21	27

# Part of the list above in order of molecular weight, rising:
smiles	NPYLR7 agonist	NPYLR7 agonist max-min
CC(C)N(Cc1nccn1Cc1cccc(F)c1)C(=O)c1ccco1	21	27
CCc1cc(N2CCCC(Cn3cncn3)C2)nc(-c2ccncc2)n1 (stereo not drawn)	-1	-4
O=C(c1ccccn1)C1CCCN(Cc2nc(COc3ccccc3)no2)C1 (stereo not drawn)	5	-1
CC(C)c1cccc(N2CC(C(=O)Nc3ccccc3C(=O)NC3CC3)CC2=O)c1 (stereo not drawn)	10	3
CC(C)(C)c1ccc(C2SCC(=O)N2CC2CCN(C(=O)Nc3ccc(C(F)(F)F)cc3)CC2)cc1 (stereo not drawn)	16	18

# Next section
smiles	NPYLR7 agonist	NPYLR7 agonist max-min
C=CCNc1nnc(SCC(=O)NCc2ccc(Cl)cc2)s1	-12	-13
O=C(c1ccccc1)c1ccc(NC(=O)c2c(O)c3ccccc3[nH]c2=O)cc1	6	8
COc1cc(OC)c(/C=C2/C(=O)Nc3ccccc32)c(OC)c1	5	-39
CC1Oc2ccccc2N(CC(=O)Nc2ccnn2Cc2cccc(Cl)c2)C1=O (stereo not drawn)	4	3
Cc1ccc2nc(N3CCOCC3)c(C=C3SC(=S)N(CCc4ccccc4)C3=O)c(=O)n2c1	0	23
CCc1cccc2c(C(CC(=O)N(CCN(C)C)Cc3ccccc3)c3ccc(C)cc3)c[nH]c12 (stereo not drawn)	1	7
CC(C)(C)OCC(O)CN1CCC(=O)N(Cc2ccccc2)Cc2ccccc21 (stereo not drawn)	-3	11
Cc1ccccc1CSCc1nc2c([nH]1)CCCNC2=O	7	3
CN(Cc1ccc(-n2cccn2)cc1)C(=O)c1cn(Cc2cccc(Cl)c2)nn1	5	-1
CSc1ncc(CN2CCC(CNC(=O)c3ccc[nH]3)C2)cn1 (stereo not drawn)	-8	-10
Cc1noc(C)c1S(=O)(=O)Nc1ccc2c(c1)OCCO2	15	8
O=C(Cn1[nH]c(=O)c2ccccc2c1=O)N1CCN(C(=O)c2ccc(F)cc2)CC1	7	4
Cc1n[nH]c(C)c1CCN(C)C(=O)C1CCC(=O)N(CCc2ccccn2)C1 (stereo not drawn)	7&4	2&6
CC(C)N(C(=O)CN(CCO)Cc1ccccc1)c1ccccc1	2	-2
CCN(C(=O)C(C)N1CCN(CC2CC2)CC1)c1cccc2ccccc12 (stereo not drawn)	11	11
Cc1ccc(S(=O)(=O)n2nc(C)c(S(=O)(=O)N(C)c3ccccc3)c2C)cc1	7	5
CC(C)N(C(=O)Cn1cnnc1S(C)=O)c1ccccc1 (stereo not drawn)	15	11
CCNC(=O)N(CCOC)Cc1ccc(OS(=O)(=O)c2ccc(F)cc2)cc1	21	16
O=C(O)CN1CCN(C23CC4CC(CC(C4)C2)C3)CC1	2	1
Cc1ccccc1NC(=O)c1csc(COC(=O)c2ccccc2)n1	-10	-17
O=C(COc1ccccc1)NC1CCN(c2ccccc2C(=O)N2CCc3ccccc3C2)CC1	23	15
CCOc1ccc(C2CC(c3ccco3)=NN2C(=O)c2ccco2)cc1 (stereo not drawn)	10	13
COc1ccc2c(=O)ccoc2c1	-9	-14
Cc1nn(C2CCS(=O)(=O)C2)c2nc(-c3ccc(F)cc3)cc(C(=O)N3CCN(C)CC3)c12 (stereo not drawn)	-1	3
CCS(=O)(=O)Oc1ccc(CN(C(=O)c2cccc([N+](=O)[O-])c2)C(C)C)cc1	-2	0

# A portion of the library. The share of hits here may be higher or lower than overall.
